Bfl-1 A1 inh: inhibitors of the anti-apoptotic protein A1, read as caspase activation; MEF A1-2A-BIM cells, Caspase-Glo 3/7 luminescence, 3 h; percent of clofoctol response, vehicle zero; caspase activation, % (concentration not given with the values); 330,000 compounds, 0.066% hits;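 active means over half of replicate activation scores above 10%, or exactly half above 10 with the replicate mean above 10; inconclusive means replicate mean below 10 yet half the replicates above 10; inactive means over half of replicates below 10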;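 further: wells of about 30 µL received 50 nL stock; many hits fall short of the cut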
T cruzi inh: T. cruzi replication inhibition; inhibition, % (concentration not given with the values); AID 1885; T. cruzi beta-gal in NIH3T3, luminescence, 90 h; 300,000 compounds, 1.4% hits;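 active means mean inhibition across valid replicates above about 55%, limit read from the data; inconclusive means mean below that limit but half or more replicates reach it; inactive means mean below it, under half of replicates reach it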;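 further: signal also drops with host cell toxicity which is not excluded here; 0% = plate median of DMSO wells and 100% = zero luminescence signal; higher percent means less beta-gal luminescence so fewer parasites; stock transfer was 50 nL into about 50 µL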
Vif A3G: inhibitors of Vif binding to APOBEC3G peptide, primary screen, biochemical, TR-FRET, GST-Vif 1-94, biotin-A3G peptide, dose response retest (AID 1117319); 260,000 compounds, 0.57% hits; TR-FRET GST-Vif / biotin-A3G peptide binding; higher % means a stronger effect; test concentration not given here; strong numbers were not always called active; inhibition, %; hits with a dose series show IC50 in µM;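 active means above the screen mean plus three standard deviations and confirmed in dose response; inconclusive means results disagree or hit not tested in dose response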;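 further: Vif residues 1-94 fused to GST binding biotinylated APOBEC3G peptide 110-148; 0% = full assay without inhibitor and 100% = GST in place of GST-Vif; retest series ran down from 100 µM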
RanGTP-Imp inh: inhibitors of RanGTP-importin-beta interaction, primary screen, biochemical, FRET, CFP-Ran, YFP-importin-beta, homogeneous | cell-free CFP-Ran/YFP-importin-beta FRET ratio | inhibition, % (concentration not given with the values) | 300,000 compounds, 1.1% hits | AID 2216;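 active means most replicates above 15%; inconclusive means exactly half above 15%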;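 further: 0% = DMSO wells and 100% = Ran loaded with GDP instead of GTP; wells of about 40 µL received 100 nL stock; the first replicate is given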
rRNA inh HTS: selective bacterial rRNA inhibition in E. coli; E. coli WT GFP vs humanized-ribosome RFP mutants, fluorescence, 24 h; stronger effect = lower value; DMSO median 0, no signal -100; GFP signal change (wild-type ribosome), % (test concentration not listed); 350,000 compounds, 1.6% hits; AID 720706;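 active means significant combined selectivity score with lowered wild-type GFP, culture density cut under 30%, mutant RFP and density less affected; inactive means any of these conditions unmet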; further: one replicate is shown; some compounds called inactive have numbers as strong as hits
AF4-AF9 inh: MLL-AF4/AF9 protein interaction inhibition. AID 651704. AlphaScreen, biotin-AF4 peptide binding to FLAG-AF9. 350,000 compounds, 0.47% hits. inhibition, % at 10 µM;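 active means every replicate reaching a set inhibition limit, whatever the replicate mean, cut at about 25% in these data; inconclusive means mean inhibition reaches that limit but some replicates miss it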;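 further: 0% = plate neutral control median and 100% = total signal loss; the record names both 10 and 1 µM as test concentration; the first replicate is given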
Target sequence (P42568 whole entry, looked up): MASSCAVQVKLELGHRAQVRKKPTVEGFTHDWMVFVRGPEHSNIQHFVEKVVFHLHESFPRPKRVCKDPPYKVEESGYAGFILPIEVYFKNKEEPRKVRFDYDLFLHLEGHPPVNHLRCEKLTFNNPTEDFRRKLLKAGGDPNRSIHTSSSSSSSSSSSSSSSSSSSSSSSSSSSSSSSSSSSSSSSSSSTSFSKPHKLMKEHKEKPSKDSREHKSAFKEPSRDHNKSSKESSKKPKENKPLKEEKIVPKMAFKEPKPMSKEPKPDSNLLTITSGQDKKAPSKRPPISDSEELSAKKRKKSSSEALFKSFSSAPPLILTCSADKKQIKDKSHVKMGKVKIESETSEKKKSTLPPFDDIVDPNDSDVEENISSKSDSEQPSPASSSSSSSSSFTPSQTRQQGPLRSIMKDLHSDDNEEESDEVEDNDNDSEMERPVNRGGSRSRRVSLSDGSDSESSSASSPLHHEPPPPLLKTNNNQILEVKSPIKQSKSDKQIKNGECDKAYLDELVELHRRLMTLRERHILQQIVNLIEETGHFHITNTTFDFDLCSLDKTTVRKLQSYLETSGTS
Calb FLC: C. albicans growth modulation with fluconazole; C. albicans CaCi-2 (fluconazole-resistant clinical isolate) + fluconazole, Alamar Blue growth, 48 h; growth inhibition, % (concentration not given with the values); 300,000 compounds, 0.57% hits;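 active means most replicates above 75%; inconclusive means exactly half above 75%; inactive means most below 75%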;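 further: all wells also contain fluconazole at 8 µg/ml as a sub-toxic cotreatment; 0% = median of DMSO wells and 100% = median of geldanamycin control wells; wells of about 8 µL received 7.5 nL stock; the first replicate is given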
Beta cell apopt: beta cell apoptosis inhibition. INS-1E cytokine-induced death, ATP luminescence, 48 h; percent of positive-control rescue, neutral wells zero. protection from apoptosis, % (concentration not given with the values). 300,000 compounds, 0.8% hits;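 active means all replicates at 75% or more, or half of them and the mean; inconclusive means half reach 75% but not the mean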;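 further: 0% = cytokine-treated negative control wells and 100% = positive control rescue; higher means more ATP so stronger rescue from cytokine killing; wells of about 40 µL received 100 nL stock; the first replicate is given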
rRNA inh HTS OD600: second read-out of rRNA inh HTS, no call of its own (marks repeat the call); OD600 change, %; measured here: OD600 growth;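 optical density of the mix in the first replicate; 0 = DMSO median and -100 = no signal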
rRNA inh HTS RFP: recorded beside rRNA inh HTS, whose call it bears; RFP signal change, %; measured here: RFP humanized mutant strains;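 first replicate; 0 = DMSO median and -100 = no signal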
* hit, by the source's call; ? = inconclusive; . = no result given.

#	SMILES	Bfl-1 A1 inh	T cruzi inh	Vif A3G	RanGTP-Imp inh	rRNA inh HTS	rRNA inh HTS OD600	rRNA inh HTS RFP	AF4-AF9 inh	Calb FLC	Beta cell apopt
1	CCOc1ncccc1C(=O)OCC(=O)c1c(N)n(C)c(=O)n(C)c1=O	-1.6	-7	-1%	-4.1	.	.	.	.	-4	-5
2	Cc1cc(C(=O)CSc2nc(N)cc(N)n2)c(C)n1CCc1ccc(F)cc1	-0.3	4	-4%	-2.0	.	.	.	.	-5	4
3	Cn1ccnc1SCc1cn2cc(Br)ccc2n1	-1.8	-17	5%	4.2	.	.	.	.	3	-2
4	CCc1cc2c(=O)c(-c3cscn3)coc2cc1O	0.1	14	23%	5.2	.	.	.	.	29	3
5	Cc1sc2c(c1C)c(=O)n(-c1ccccc1)c(=O)n2CC(=O)NCC1CCCO1 (stereo unspecified)	-0.1	-7	.	-0.4	10	7	-2.7	4.7	-2	1
6	O=C(NC(Nc1nc2ccc([N+](=O)[O-])cc2s1)(C(F)(F)F)C(F)(F)F)c1cccnc1	-0.9	56*	.	-0.7	-58	-77	-27	-2.7	34	119*
7	CN(C)C(=O)c1nc2ccc(Cl)cn2c1CNCc1ccccc1OC(F)(F)F	?	-2	3%	-4.0	-20	-22	-5.1	1.2	-6	-4
8	COc1ccccc1C(=O)COC(=O)C(NC(=O)Cc1ccccc1)C(C)C (stereo unspecified)	0.3	.	.	.	-1	-4	-3.1	-1.1	.	-4
9	CC(C)C[C@H]1C(=O)N2CCC[C@H]2[C@]2(O)O[C@](NC(=O)C3C=C4c5cccc6[nH]c(Br)c(c56)C[C@H]4N(C)C3)(C(C)C)C(=O)N12 (stereo partly specified)	-1.1	31	.	-6.1	.	.	.	1.8	.	11
10	COc1cccc(C2=CC(c3ccc(OC)c(OC)c3)NC(=S)N2)c1 (stereo unspecified)	0.2	-2	14%	3.1	.	.	.	0.3	3	0
11	COCCN(C(=O)Cc1coc2cc(C)c(C)cc12)c1c(N)n(Cc2ccccc2)c(=O)[nH]c1=O	0.4	?	-7%	0.7	8	6	-0.2	0.3	.	-2
12	CC1CCCC(C)N1C(=O)COC(=O)c1ccc2c(c1)OCO2 (stereo unspecified)	0.2	-3	3%	?	.	.	.	.	-2	-4
13	N=c1n(CC(=O)c2ccc(Br)cc2)c2ccccc2n1Cc1ccccc1	0.1	.	.	.	2	3	-1.5	12	.	16
14	CCC(=O)Nc1c(S(=O)(=O)c2ccc(C)cc2)c2nc3ccccc3nc2n1C(C)c1ccccc1 (stereo unspecified)	-1.1	23	.	4.4	14	-8	3.2	3.7	-10	4
15	COc1ccc(-c2cc([C@H]3[C@@H]4C=CCC[C@@]4(C)C(=O)N3Cc3ccccc3)ccc2F)cc1OC	-0.7	31	.	-0.5	3	9	-2.1	-1.2	0	3

Reprinted at random: 3 compounds from above, in no set order.
#	SMILES	Bfl-1 A1 inh	T cruzi inh	Vif A3G	RanGTP-Imp inh	rRNA inh HTS	rRNA inh HTS OD600	rRNA inh HTS RFP	AF4-AF9 inh	Calb FLC	Beta cell apopt
15	COc1ccc(-c2cc([C@H]3[C@@H]4C=CCC[C@@]4(C)C(=O)N3Cc3ccccc3)ccc2F)cc1OC	-0.7	31	.	-0.5	3	9	-2.1	-1.2	0	3
8	COc1ccccc1C(=O)COC(=O)C(NC(=O)Cc1ccccc1)C(C)C (stereo unspecified)	0.3	.	.	.	-1	-4	-3.1	-1.1	.	-4
14	CCC(=O)Nc1c(S(=O)(=O)c2ccc(C)cc2)c2nc3ccccc3nc2n1C(C)c1ccccc1 (stereo unspecified)	-1.1	23	.	4.4	14	-8	3.2	3.7	-10	4

Continued:
#	SMILES	Bfl-1 A1 inh	T cruzi inh	Vif A3G	RanGTP-Imp inh	rRNA inh HTS	rRNA inh HTS OD600	rRNA inh HTS RFP	AF4-AF9 inh	Calb FLC	Beta cell apopt
16	CCC(C)N1CC(=O)N2Cc3[nH]c4ccccc4c3C[C@H]2C1=O (stereo partly specified)	0.4	-1	-5%	-0.6	5	19	0.4	-15	1	-3
17	CC1(C(=O)OCC(=O)Nc2nnc(-c3ccccc3)o2)CC1(Cl)Cl (stereo unspecified)	-0.4	-2	1%	0.5	-53	-76	-16	-0.4	-2	-2
18	O=C(NC1CCN(Cc2ccccc2)CC1)c1ccccc1NS(=O)(=O)c1ccc(F)cc1	0.1	.	.	.	-2	-4	2.7	1.2	.	7
19	COc1ccccc1C(=O)Nc1ccccc1C(=O)NCc1ccco1	-0.8	2	8%	0.1	-6	-20	1.9	3.1	-2	-19
20	O=C(COc1ccc(S(=O)(=O)N2CCOCC2)cc1)NCCc1ccccc1	-0.5	-5	0%	-1.5	-4	-4	-2.3	2.0	8	.
21	CCOC(=O)c1ccc(NC(=O)c2cccc(C)c2[N+](=O)[O-])cc1	0.8	3	.	-1.7	-3	-2	-2.6	7.4	-31	-5
22	Cc1cccc(N2CCN(Cc3cnc(Cl)s3)CC2C)c1 (stereo unspecified)	-0.3	0	.	-1.6	-28	31	2.2	3.0	18	-5
23	COc1ccc(C(=O)NCC2CCCO2)cc1OC (stereo unspecified)	-0.7	-12	?	0.7	6	7	-4.4	-1.3	1	-11
24	COC(=O)CNC(=O)c1ccccc1F	0.0	-13	4%	-3.7	20	4	5.0	-5.1	10	-3
25	COc1cccc(-c2nn(-c3ccccc3)cc2/C=C\C(=O)c2cccs2)c1	-0.6	25	3%	5.3	.	.	.	.	-4	25
26	O=C(NNc1ccccc1[N+](=O)[O-])Nc1ccc(Cl)c(Cl)c1	-0.6	38	-6%	0.2	-34	-70	4.5	3.5	-18	-13
27	NNC(=O)CSc1nnc(-c2ccccc2)n1-c1ccccc1	0.9	-7	.	4.5	6	9	2.0	2.2	22	-6
28	C=CCn1c(SCc2nc3sc(C(=O)O)c(C)c3c(=O)[nH]2)nnc1-c1ccc(C(C)(C)C)cc1	0.1	-5	.	-4.6	-20	-14	11	1.6	-2	-2
29	COCCCNC(=O)CSc1ccsc1[N+](=O)[O-]	0.3	8	25%	.	3	-5	2.4	-4.0	.	-6
30	COc1ccc(C(=O)Nc2nnc(Cc3ccc(OC)c(OC)c3)s2)cc1	0.9	8	.	1.9	3	6	0.3	-1.6	5	-1

Three compounds from above, limited to rRNA inh HTS OD600, rRNA inh HTS and RanGTP-Imp inh.
No.	Molecule	rRNA inh HTS OD600	rRNA inh HTS	RanGTP-Imp inh
7	CN(C)C(=O)c1nc2ccc(Cl)cn2c1CNCc1ccccc1OC(F)(F)F	-22	-20	-4.0
8	COc1ccccc1C(=O)COC(=O)C(NC(=O)Cc1ccccc1)C(C)C (stereo unspecified)	-4	-1	.
9	CC(C)C[C@H]1C(=O)N2CCC[C@H]2[C@]2(O)O[C@](NC(=O)C3C=C4c5cccc6[nH]c(Br)c(c56)C[C@H]4N(C)C3)(C(C)C)C(=O)N12 (stereo partly specified)	.	.	-6.1

Other results follow.
#	SMILES	Bfl-1 A1 inh	T cruzi inh	Vif A3G	RanGTP-Imp inh	rRNA inh HTS	rRNA inh HTS OD600	rRNA inh HTS RFP	AF4-AF9 inh	Calb FLC	Beta cell apopt
31	O=C(OCC(=O)C12CC3CC(CC(C3)C1)C2)c1ccc(O)cc1O	0.5	7	8%	1.1	-57	-81	-17	-23	3	9
32	COC(=O)c1ccc2[nH]c3cccc(/C(=C/c4ccccc4)c4ccccc4)c3c2c1	2.4	24	.	5.8	10	18	-0.3	-22	5	109*
33	O=C(CC(Cc1ccccc1)C(=O)O)Nc1ccc(Cl)c(Cl)c1 (stereo unspecified)	-0.9	-5	1%	1.7	-43	-68	-18	-0.1	-3	-3
34	COCCNC(=O)/C(C#N)=C/c1cc(Br)c(O)c(OC)c1	-1.3	-5	?	-2.3	-5	-15	-4.8	0.7	-6	-7
35	CCOc1ccccc1C(=O)Nc1cc(Cl)ccc1O	-0.1	10	3%	-2.1	.	.	.	.	34	4
36	CC12CCC(C(=O)Nc3ccccc3Cl)([C@H](Br)C1=O)C2(C)C (stereo partly specified)	0.4	9	0%	2.9	8	2	3.4	3.9	0	-5
37	O=[N+]([O-])c1ccc(N2CCN(c3ccccc3F)CC2)c(S(=O)(=O)N2CCOCC2)c1	1.1	17	12%	2.6	.	.	.	.	-5	0
38	O=C1CC(N2CCN(c3ccccc3)CC2)C(=O)N1c1ccc(Cl)cc1 (stereo unspecified)	1.0	-5	.	2.7	4	7	-1.2	1.8	6	2
39	CN1CCN(C(=O)C2CCC(C)(C(=O)O)C2(C)C)CC1 (stereo unspecified)	0.6	-17	8%	2.0	11	0	-4.4	-2.3	-9	3
40	Cc1ccc2nc(C)c(CN3CCN(c4ccc([N+](=O)[O-])cc4Cl)CC3)n2c1	-0.4	42	.	?	-21	-22	1.4	?	?	104*
41	Cc1nn(-c2ccccc2)c(N2CCCC2)c1/C=N/NC(=O)c1ccccc1O	0.1	-9	27%	1.0	.	.	.	.	91*	0
42	CC(C)c1ccc(C2CC(c3ccc(Br)cc3)=NN2C(N)=S)cc1 (stereo unspecified)	0.6	-5	20%	1.6	.	.	.	.	7	-13
43	Cc1cccc(/C=N/NC(=O)c2ccc(NC(=O)c3cccc(Cl)c3)cc2)n1	0.7	-2	.	5.9	-5	-14	-0.9	2.9	5	-8
44	COc1cc2c(cc1OC)C(C)N(C(=O)[C@@H](NC(=O)c1ccccc1)C(C)C)CC2 (stereo partly specified)	0.6	-9	.	0.9	2	2	0.9	-0.3	2	2
45	Cc1ccccc1NC(=O)c1nn(C)c(C(=O)Nc2ccccc2C)c1[N+](=O)[O-]	1.0	-1	6%	-1.9	2	9	-0.7	-0.4	1	1
46	CCc1ccccc1NC(=O)COC(=O)c1cccs1	-0.3	-5	.	-1.9	9	13	-3.0	0.7	-5	-4
47	OCCC1CN(CCCn2cccn2)CCN1C1CCCCC1 (stereo unspecified)	.	-8	.	-1.7	17	17	-0.2	-1.4	-1	.
48	N#C/C(=C\c1cccc([N+](=O)[O-])c1)C(=O)NCC1CCCO1 (stereo unspecified)	-0.1	-15	.	2.1	16	13	2.6	-2.0	-3	-7

Compound activity from PubChem.

This is a subset; the hit share may differ from the screen's.
